From PubChem BioAssay
Vaccinia inh: Vaccinia orthopox stage-specific inhibition | 89,000 compounds, 0.01% hits | Vaccinia-infected cells, mCherry/Venus stage reporter fluorescence; active compounds read low; some inactives read as strong as hits | activity change (mCherry), % (concentration not given with the values) | AID 1053133;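 active means mCherry past -33% and 40 or more points under the early reporter, replicates agreeing; inconclusive means past -33% without that gap or agreement; tested in A549 cells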;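 further: scaled between vehicle wells and reference inhibitor wells; 23 nL library stock went into each well; one replicate is shown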
Vaccinia inh Venus: also measured in Vaccinia inh; calls as there; activity change (Venus), %; measured here: Venus reporter, other viral stage;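 negative = less Venus signal; first of two replicates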
Starred values were filed as active, the others as inactive; ? = inconclusive; nt = no result given; & = joins results of further samples.

Sample of the layout, 3 compounds:
SMILES | Vaccinia inh | Vaccinia inh Venus
COc1ccc(NC(=O)N(C)C[C@@H]2OCCCC[C@H](C)Oc3ccc(NC(=O)Nc4ccc5c(c4)OCO5)cc3C(=O)N([C@@H](C)CO)C[C@H]2C)cc1 | 17.9 | 0.2
C[C@H]1CN([C@@H](C)CO)C(=O)CCCn2cc(nn2)CO[C@H]1CN(C)S(=O)(=O)c1ccc(-n2cccn2)cc1 | 5.2 | 6.5
CCCC#Cc1ccc([C@H]2[C@H](CO)N3C(=O)CN(C(=O)Nc4cc(F)ccc4F)C[C@@H]23)cc1 | -15.1 | -7.7

This part in full, from the first entry:
SMILES | Vaccinia inh | Vaccinia inh Venus
COc1ccc(NC(=O)N(C)C[C@@H]2OCCCC[C@H](C)Oc3ccc(NC(=O)Nc4ccc5c(c4)OCO5)cc3C(=O)N([C@@H](C)CO)C[C@H]2C)cc1 | 17.9 | 0.2
C[C@H]1CN([C@@H](C)CO)C(=O)CCCn2cc(nn2)CO[C@H]1CN(C)S(=O)(=O)c1ccc(-n2cccn2)cc1 | 5.2 | 6.5
CCCC#Cc1ccc([C@H]2[C@H](CO)N3C(=O)CN(C(=O)Nc4cc(F)ccc4F)C[C@@H]23)cc1 | -15.1 | -7.7
Cc1ccc(S(=O)(=O)N[C@H]2CC[C@@H](CC(=O)NCCN3CCCCC3)O[C@@H]2CO)cc1 | 12.4 | 4.4
O=C(NC1CCCCC1)N1CC2(C1)[C@@H](c1ccccc1)[C@@H](CO)N2CC1CC1 | -1.0 | 4.7
C[C@H](CO)N1C[C@H](C)[C@@H](CN(C)Cc2ccc(C(F)(F)F)cc2)OCCCC[C@H](C)Oc2ccc(NS(=O)(=O)c3cccs3)cc2C1=O | ? | nt
CCC(=O)Nc1ccc2c(c1)OC[C@@H](C)N(Cc1ccccn1)C[C@H](C)[C@@H](OC)CN(C)C2=O | 6.0 | 5.5
O=C(NCC1CCCCC1)[C@H]1[C@H](CO)[C@H]2Cn3c(cccc3=O)[C@@H]1N2C(=O)c1ccncc1 | -3.0 | -4.1
O=C(NCC1CC1)[C@@H]1[C@@H](CO)[C@@H]2Cn3c(ccc(-c4ccncc4)c3=O)[C@H]1N2Cc1nccs1 | -2.0 | -1.5
Cc1ccccc1-c1ccc([C@H]2[C@H](CO)N3CCCCN(C(=O)c4cccnc4)C[C@@H]23)cc1 | 7.5 | 3.1
C[C@H]1CN([C@@H](C)CO)C(=O)c2cc(C#Cc3cccnc3)cnc2O[C@@H]1CN(C)S(=O)(=O)c1ccccc1F | -26.3 | -18.9
COCc1cn(CC[C@H]2CC[C@@H](NC(=O)Nc3ccc(OC)cc3)[C@H](CO)O2)nn1 | 8.4 | -4.8
COc1cccc(S(=O)(=O)N2C[C@@H](O)COC[C@H]3O[C@H](CC(=O)N4CCCCC4)CC[C@@H]32)c1 | -0.4 | 2.8
CCCNC(=O)[C@H]1N[C@H]2c3ccc(C4=CCCC4)c(=O)n3C[C@H]2[C@@H]1CO | 3.1 | 7.4
C[C@@H]1CN([C@@H](C)CO)C(=O)c2cc(/C=C/c3ccccc3)cnc2O[C@@H]1CN(C)S(=O)(=O)c1cccs1 | ? | nt

Reprinted at random: 4 records from the list, in no set order.
SMILES | Vaccinia inh | Vaccinia inh Venus
COCc1cn(CC[C@H]2CC[C@@H](NC(=O)Nc3ccc(OC)cc3)[C@H](CO)O2)nn1 | 8.4 | -4.8
CCCNC(=O)[C@H]1N[C@H]2c3ccc(C4=CCCC4)c(=O)n3C[C@H]2[C@@H]1CO | 3.1 | 7.4
O=C(NC1CCCCC1)N1CC2(C1)[C@@H](c1ccccc1)[C@@H](CO)N2CC1CC1 | -1.0 | 4.7
C[C@H](CO)N1C[C@H](C)[C@@H](CN(C)Cc2ccc(C(F)(F)F)cc2)OCCCC[C@H](C)Oc2ccc(NS(=O)(=O)c3cccs3)cc2C1=O | ? | nt

More entries:
SMILES | Vaccinia inh | Vaccinia inh Venus
O=C(Cc1ccccn1)NCC[C@@H]1CC[C@@H](NC(=O)Nc2ccc(Cl)cc2)[C@@H](CO)O1 | 12.3 | 10.6
O=C(N[C@H]1C=C[C@H](CC(=O)N2CCCCC2)O[C@H]1CO)c1cccc(F)c1 | 5.4 | 4.3
CO[C@H]1CN(C)C(=O)c2ccc(NC(=O)Nc3cc(F)ccc3F)cc2OC[C@H](C)N(C(=O)c2ccccn2)C[C@@H]1C | 6.3 | -2.0
CCS(=O)(=O)N1CC2(CN(Cc3ccccc3F)[C@@H](CO)c3[nH]c4cc(OC)ccc4c32)C1 | 21.2 | 14.2
O=C(c1ccccn1)N1CC2(C1)[C@@H](c1ccccc1)[C@@H](CO)N2C(=O)C1CC1 | 10.1 | 13.0
O=C(C[C@H]1C[C@@H]2c3cc(NC(=O)Nc4ccc(C(F)(F)F)cc4)ccc3O[C@@H]2[C@H](CO)O1)NCc1ccc(Cl)cc1 | 7.4 | 9.2
N#C[C@H]1[C@@H](c2ccccc2/C=C/c2ccccc2)[C@@H](CO)N1S(=O)(=O)c1cccc(F)c1 | -16.6 | -7.8
O=C(c1ccccn1)N1C[C@H]2[C@@H](c3ccccc31)[C@H](CO)N2C(=O)Nc1ccccc1Cl | -6.1 | -1.1
Cc1noc(C)c1NC(=O)Nc1ccc2c(c1)CC(=O)N([C@H](C)CO)C[C@H](C)[C@H](CN(C)CC1CC1)O2 | 15.7 | 5.2
Cn1cnc(S(=O)(=O)N[C@H]2C=C[C@H](CC(=O)NCC3CC3)O[C@@H]2CO)c1 | 4.1 | -0.3
C/C=C/c1ccc([C@@H]2[C@H](CO)N(C(=O)CC)[C@H]2CNC(=O)CC)cc1 | -8.2 | 2.7
CO[C@@H]1CN(C)C(=O)c2cc(NC(=O)Nc3c(C)noc3C)ccc2OC[C@@H](C)N(C)C[C@@H]1C | -7.3 | -5.2
CCS(=O)(=O)N[C@H]1C=C[C@@H](CC(=O)NCc2ccc(Cl)cc2)O[C@H]1CO | 11.5 | 11.6
O=C(Nc1ccc(Cl)cc1)N[C@H]1CC[C@@H](CCn2cc(Cc3ccccc3)nn2)O[C@@H]1CO | ? | nt
COc1ccc(-c2cn(CC[C@@H]3CC[C@@H](NC(=O)c4cnccn4)[C@H](CO)O3)nn2)cc1 | 20.4 | 18.1
CC(C)NC(=O)N(C)C[C@@H]1OCc2cnnn2CCCC(=O)N([C@H](C)CO)C[C@H]1C | 11.6&-0.2 | 15.0&2.3
COc1ccc(S(=O)(=O)Nc2ccc3c(c2)C(=O)N([C@H](C)CO)C[C@@H](C)[C@H](CN(C)C(=O)Nc2cccc4ccccc24)O3)cc1 | 15.2 | 6.0
CCC(=O)N1C[C@@H](C)[C@@H](OC)CN(C)C(=O)c2cc(NC(=O)C3CCCCC3)ccc2OC[C@@H]1C | -2.4 | -6.2
COc1ccc(C#Cc2ccc([C@@H]3[C@H]4CN(C(=O)Nc5ccccc5F)CCCCN4[C@H]3CO)cc2)cc1 | ? | nt
C[C@H](CO)N1C[C@H](C)[C@H](CN(C)C)Oc2ccc(NC(=O)Nc3ccc(F)cc3)cc2C1=O | 8.8 | 4.9
CCC(=O)N(C)C[C@H]1Oc2cc(-c3cccnc3)ccc2S(=O)(=O)N([C@H](C)CO)C[C@@H]1C | 15.2 | 2.7
COc1cccc(-c2ccc3c(c2)O[C@@H](CN(C)C(=O)C2CC2)[C@H](C)CN([C@@H](C)CO)S3(=O)=O)c1 | 13.6 | 8.5
CC(C)NC(=O)Nc1ccc2c(c1)C(=O)N([C@@H](C)CO)C[C@H](C)[C@H](CN(C)C(=O)Cc1ccccc1)OCCCC[C@@H](C)O2 | 2.0 | -2.9
C=CC1c2cc(OC)c(OC)cc2CC(C)N1Cc1ccc(OC)cc1 (stereo not drawn) | -31.7 | -29.6
C[C@@H]1CN([C@H](C)CO)C(=O)c2cccc(NC(=O)CCCCCC(=O)Nc3ccccc3N)c2O[C@@H]1CN(C)C(=O)Nc1ccc2c(c1)OCO2 | 5.8 | 5.7
COc1cccc(NC(=O)N2C[C@H](O)COC[C@H]3O[C@H](CC(=O)N(C)C)CC[C@@H]32)c1 | 1.6 | 11.7
C/C=C/c1cnc2c(c1)C(=O)N([C@@H](C)CO)C[C@@H](C)[C@@H](CN(C)C(=O)Cc1ccccc1)O2 | 31.9 | 14.6
Cc1ccc(S(=O)(=O)N(C)C[C@@H]2Oc3ccc(NS(=O)(=O)c4c(C)noc4C)cc3CC(=O)N([C@H](C)CO)C[C@@H]2C)cc1 | 11.8 | 9.3
CCCNC(=O)N1C[C@@H](C)[C@H](OC)CN(C)C(=O)c2ccc(NS(C)(=O)=O)cc2OC[C@H]1C | 0.9 | 7.8
Cc1ccc(S(=O)(=O)N(C)C[C@@H]2Oc3ccc(NC(=O)NC4CCCCC4)cc3C(=O)N([C@H](C)CO)C[C@H]2C)cc1 | -28.1 | -15.7
C[C@H]1CN([C@@H](C)CO)C(=O)Cc2cc(NC(=O)CCCCCC(=O)Nc3ccccc3N)ccc2O[C@H]1CN(C)Cc1ccc(-c2ccccc2)cc1 | ? | nt
COc1ccc(S(=O)(=O)N(C)C[C@H]2Oc3ccc(NC(=O)CCN4CCOCC4)cc3C(=O)N([C@@H](C)CO)C[C@H]2C)cc1 | 1.8 | -3.2
C[C@@H]1CN([C@H](C)CO)C(=O)Cc2cc(NC(=O)C3CC3)ccc2O[C@H]1CN(C)CC1CCCCC1 | 1.3 | 1.6
CCC(=O)N1[C@@H]2Cn3c(ccc(C4=CCCCC4)c3=O)[C@H]1[C@@H](C(=O)N[C@H](C)c1ccccc1)[C@@H]2CO | -2.7 | -3.1
Cc1ccc(S(=O)(=O)N(C)C[C@@H]2OCCCC[C@H](C)Oc3ccc(N(C)C)cc3C(=O)N([C@@H](C)CO)C[C@@H]2C)cc1 | -33.1 | -28.0
C[C@@H]1CN([C@@H](C)CO)C(=O)Cc2cc(NS(=O)(=O)c3cccs3)ccc2O[C@@H]1CN(C)S(=O)(=O)c1ccc(F)cc1 | 12.5 | 14.8
Cc1ccc(-c2cnc3c(c2)C(=O)N([C@@H](C)CO)C[C@@H](C)[C@@H](CN(C)CC2CCOCC2)O3)cc1 | ? | nt
Cc1ccccc1S(=O)(=O)N1[C@@H](C#N)[C@@H](c2ccc(C#CC3CCCC3)cc2)[C@@H]1CO | ? | nt
COc1ccc(S(=O)(=O)N(C)C[C@H]2Oc3ccc(NS(=O)(=O)c4ccccc4)cc3CC(=O)N([C@@H](C)CO)C[C@@H]2C)cc1 | 25.9 | 11.8
C[C@@H]1CCCCO[C@H](CN(C)C(=O)NC2CCCCC2)[C@H](C)CN([C@H](C)CO)C(=O)c2cc(NC(=O)Nc3cccc4ccccc34)ccc2O1 | 15.5 | 11.1
O=C(CC1CC1)N1CC(=O)N2[C@@H](CO)[C@@H](c3ccc(C#Cc4ccccc4)cc3)[C@@H]2C1 | -11.6 | -20.9
CC(C)C#Cc1ccc2c(c1)O[C@@H](CN(C)S(=O)(=O)c1cn(C)cn1)[C@H](C)CN([C@H](C)CO)S2(=O)=O | 5.8 | -4.8
Cc1noc(C)c1NC(=O)Nc1ccc2c(c1)C(=O)N([C@H](C)CO)C[C@@H](C)[C@@H](CN(C)S(=O)(=O)c1ccc(Cl)cc1)O2 | 9.5 | 11.6
N#C[C@@H]1[C@H](c2ccc(-c3ccc(F)cc3)cc2)[C@H](CO)N1C(=O)Cc1ccccc1 | -30.4 | -24.9
C[C@@H]1CN([C@@H](C)CO)C(=O)Cc2cc(NC(=O)CCC(F)(F)F)ccc2O[C@H]1CN(C)C(=O)Nc1ccc2c(c1)OCO2 | 4.4 | 3.4
C[C@@H]1CN([C@@H](C)CO)C(=O)c2cccc(NS(=O)(=O)c3ccccc3)c2O[C@H]1CN(C)C(=O)NC1CCCCC1 | -2.0 | -4.7
O=C(Cc1ccncc1)N[C@@H]1CC[C@H](CCn2cc(-c3ccccc3F)nn2)O[C@@H]1CO | 1.7 | -0.8
C[C@@H]1CN([C@H](C)CO)C(=O)c2cc(C3=CCCCC3)cnc2O[C@@H]1CN(C)C(=O)Cc1cccnc1 | 11.6 | 8.0
O=C(C[C@H]1CC[C@H]2[C@@H](COC[C@H](O)CN2Cc2ccccc2)O1)N[C@@H]1CCN(Cc2ccccc2)C1 | -15.4 | -0.6
COCC(=O)N1C[C@H](C)[C@@H](OC)CN(C)C(=O)c2cc(NC(=O)Nc3ccccc3)ccc2OC[C@H]1C | -0.7 | -2.2
CO[C@@H]1CN(C)C(=O)c2cc(NC(=O)c3cnccn3)ccc2OC[C@@H](C)N(CC2CC2)C[C@H]1C | -4.2 | -0.3
COc1cccc(S(=O)(=O)N2CCCCN3[C@@H](CO)[C@@H](c4ccc(C#CCC(C)C)cc4)[C@@H]3C2)c1 | ? | nt
CO[C@H]1CN(C)C(=O)c2cc(NC(=O)Nc3ccccc3F)ccc2OC[C@H](C)N(C)C[C@@H]1C | -7.5 | -3.9
C[C@@H]1CN([C@H](C)CO)C(=O)CCCn2cc(nn2)CO[C@@H]1CN(C)C(=O)Nc1ccc(N2CCN(C)CC2)cc1 | 16.1 | 11.1
CC(C)(O)C#Cc1ccc([C@H]2[C@@H](CO)N3CCCCN(S(C)(=O)=O)C[C@@H]23)cc1 | 22.4 | 18.6
C[C@H]1CN([C@@H](C)CO)C(=O)c2ccccc2-c2ccccc2CO[C@@H]1CN(C)C(=O)c1ccc(F)cc1 | 27.4 | 3.0
CO[C@@H](CN(C)S(=O)(=O)c1ccccc1)[C@@H](C)CN(Cc1ccccc1Cl)[C@H](C)CO | -15.7 | -8.2
CNC(=O)C[C@H]1CC[C@H]2[C@H](COc3ccc(NC(=O)c4cccc(F)c4)cc3C(=O)N2C)O1 | 3.4&-4.1 | -3.3&-5.7
COc1ccc(CNC(=O)C[C@@H]2CC[C@H](NC(=O)c3cccc(F)c3)[C@@H](CO)O2)cc1 | -7.0 | -5.3

The list is partial, so the mix of outcomes need not match the whole.
